Screening results (PubChem)
RN4220 kill: kills Staphylococcus aureus RN4220. inhibition, % (no concentration beside the values). S. aureus RN4220 growth, OD600, 16 h. 330,000 tested, 0.33% active. AID 1259311;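 active = z-score of -3 or lower and OD600 up to 0.18 on both plates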;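 also: plate controls were untreated cells for no effect and reference antibiotic for full effect; stock transfer was 100 nL into about 80 µL; one replicate is shown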
Sa ugtP lethal: compounds lethal to S. aureus RN4220 ugtP deletion mutant; 330,000 tested, 0.54% active; OD600 growth, 16 h; some inactives read as strong as hits; growth inhibition, % (no concentration beside the values);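 active = z-score under -3 and OD600 up to 0.15 on both plates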;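 also: plate controls were untreated wells for no effect and antibiotic for full effect; wells of about 80 µL received 100 nL stock; the first replicate is given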
Mtb hypoxia inh: inhibitors of hypoxia-regulated fluorescent reporter in Mycobacterium tuberculosis; M. tuberculosis hypoxia-regulated fluorescent reporter, fluorescence; fluorescence inhibition, % (concentration not given with the values); 300,000 tested, 0.1% active;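 active = 35 to 45% if threefold the growth effect, above 45% if 1.5-fold the growth effect; inactive = the rest, general growth blockers included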;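 also: wells of about 50 µL received 100 nL stock; 0% = vehicle wells and 100% = reference inhibitor wells; whole bacteria with a GFP reporter of the hypoxia response; strong numbers were not always called active; many hits fall short of the cut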
PrP UTR inh: inhibition of PrP 5' UTR reporter expression; cell-based PrP 5' UTR mRNA reporter, plate reader; inhibition, % (no concentration beside the values); AID 488862; 340,000 tested, 0.35% active;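 active = every replicate at 50% or more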;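 also: 0 = median of the neutral control wells; tested in H4 reporter cells; numbers are from one replicate; inactives centre near -14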
Bead autofluor: flagged as autofluorescent in microsphere protease counterscreen; compound autofluorescence counterscreen, microsphere flow cytometry; stronger effect = higher value; 360,000 tested, 3.1% active; AID 624483; fluorescence intensity (no concentration beside the values);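 active = at least 3 SD above the mean of all compounds, about 16000 in these data; inconclusive = too few beads counted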;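 also: 100 nL of 1 mM stock went into each well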
BJeLR lethal: BJeLR cell viability loss | inhibition, % (concentration not given with the values) | BJeLR (HRASV12) viability, CellTiter-Glo ATP luminescence, 48 h; reference of the scale not given here | 300,000 tested, 0.17% active;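 active = replicate mean above 50%; inconclusive = above 50% but judged a plate artefact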;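 also: 50 nL library stock added to about 25 µL; numbers are from one replicate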
Mtb hypoxia inh growth: also measured in Mtb hypoxia inh; calls as there; growth inhibition, %; measured here: M. tuberculosis growth (absorbance);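 0% = vehicle and 100% = reference antibiotic; read after six days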
The depositor's hits bear a star; ? = inconclusive; · = no result given.

SMILES	RN4220 kill	Sa ugtP lethal	Mtb hypoxia inh	Mtb hypoxia inh growth	PrP UTR inh	Bead autofluor	BJeLR lethal
Cc1c(Cl)cccc1NC(=O)COC(=O)c1c2c(nc3ccccc13)CCN(Cc1ccccc1)C2	2.9	-21	13	11	16	2147	1
CC1CC(=O)Nc2ccccc2N1C(=O)Nc1ccc(F)cc1 (stereo unspecified)	-1.3	4	-1	-7	-26	·	6
O=C(CN1CCN(C(=O)c2ccccc2)CC1)Nc1ccc(Br)cn1	-0.5	6	·	·	-20	5039	-1
NS(=O)(=O)c1ccc(NC(=O)COC(=O)CCC2CCCC2)cc1	15	7	13	18	-18	4229	0
CCN(CC)CCn1c2c(c(SCC(=O)NCc3ccccc3)nc1=O)CCCC2	3.1	2	11	5	-15	?	-1
O=C(c1cc2cc(Cl)ccc2[nH]1)N1CCN(c2ccccc2F)CC1	2.2	-1	5	9	-13	3335	-6
COc1cc(C)nc(OCCNS(=O)(=O)c2cc(C)ccc2C)n1	-6.7	-5	17	16	2	2315	6
Cn1cc(/C=C(\NC(=O)c2ccccc2)C(=O)NCCN2CCOCC2)c2ccccc21	2.3	4	5	-15	-18	4680	0
CCC(=O)Nc1ccc(C2C(=O)c3ccccc3C2=O)cc1	0.6	8	17	26	23	3582	10
COc1cccc(OC)c1C(=O)OCC(=O)N1CCC(Cc2ccccc2)CC1	4.7	5	-3	-13	11	3660	·
Cn1c(C(C#N)=C(O)CN2CCN(Cc3ccccc3)CC2)nc2ccccc21	3.4	-6	5	6	·	·	·
O=C(Cc1ccccc1)NC(C(=O)O)C(O)c1ccc([N+](=O)[O-])cc1 (stereo unspecified)	2.2	0	5	13	-8	3634	2
Clc1ccc(CSc2nnc(-c3sccc3-n3cccc3)o2)cc1	16	14	·	·	-8	3698	-10
O=C(CSc1ccc2nnc(-c3cccnc3)n2n1)Nc1ccc(F)cc1	4.4	11	4	0	-18	3969	-2
CC(=O)c1ccc(OC(=O)Cc2cccc3ccccc23)cc1	2.8	8	24	9	-15	3224	6
CCC1CCCCN1CC(=O)Nc1ccc2c(c1)OCCO2 (stereo unspecified)	0.9	-1	4	1	-36	6712	·
C#CCOc1c(/C=C\c2nc(O)c([N+](=O)[O-])c(=O)[nH]2)cc(Br)cc1OC	1.3	9	8	4	-27	3138	9
O=C(Nc1nccs1)C1CCN(S(=O)(=O)c2ccccc2)CC1	5.6	2	-7	5	4	6054	-7
COc1ccc(NC(=O)COC(=O)c2ccc(Br)o2)cc1OC	3.1	4	·	·	-20	3605	30
Cc1ccc(CNC(=O)COc2ccc3c(c2)CCC3)cc1	0.5	15	4	12	-13	9130	3
O=C1NC(CCO)C(=O)NC1CCO (stereo unspecified)	2.7	6	15	11	-27	3473	·
CCc1nccn1S(=O)(=O)c1ccc(OC)c(OC)c1	3.4	3	4	11	0	4130	-4
COc1ccc2cc(C(=O)NCc3ccccc3)c(=O)oc2c1	6.7	2	-1	-3	-45	3866	-4
CC(=NNC(=O)c1ccc(Cl)s1)c1cccnc1	8.4	-2	-5	-3	·	·	·
O=C(CN1CCN(c2ccccn2)CC1)Nc1ccc(F)c(F)c1	0.7	2	-3	-3	-22	3742	-6

An excerpt from above, showing only Mtb hypoxia inh.
SMILES	Mtb hypoxia inh
O=C1NC(CCO)C(=O)NC1CCO (stereo unspecified)	15
CCc1nccn1S(=O)(=O)c1ccc(OC)c(OC)c1	4
COc1ccc2cc(C(=O)NCc3ccccc3)c(=O)oc2c1	-1

(list continues)
SMILES	RN4220 kill	Sa ugtP lethal	Mtb hypoxia inh	Mtb hypoxia inh growth	PrP UTR inh	Bead autofluor	BJeLR lethal
CS(=O)(=O)N1CCN(Cc2ccccc2C(F)(F)F)CC1	-4.0	2	·	·	-9	4757	1
COc1ccc(N2CCN(CCCNC(=O)C3CCC(CNc4nc(=S)[nH]c5ccccc45)CC3)CC2)cc1 (stereo unspecified)	-1.3	5	4	14	1	3204	0
COc1cccc(/C=N/NC(=O)c2cc(-c3cccn3C)n[nH]2)c1	·	·	·	·	-35	9585	-11
Cc1ccc(Nc2nc(CSc3nnc(-c4cccnc4)n3-c3ccccc3F)cs2)cc1	-5.7	7	17	7	-21	2577	-3
COc1ccc(C(=O)NC(=S)NNC(=O)c2ccco2)cc1	25	13	-6	-1	-14	3327	-11
COc1ccc(/C=N/NC(=O)Cn2nc(C)c([N+](=O)[O-])c2C)cc1	·	·	·	·	-16	2310	9
Cc1cc(C)cc(NS(=O)(=O)c2ccc(NC(=S)NC(=O)c3cccs3)cc2)c1	37	65	3	6	-8	1634	-3
CN1CCN(CCNC(=O)c2ccc3nc(-c4ccc(F)cc4)c(-c4ccc(F)cc4)nc3c2)CC1	-5.0	2	8	7	-27	5329	4
CC(CCc1ccc(O)cc1)NC1C2CC3CC(C2)CC1C3 (stereo unspecified)	0.8	3	2	3	-2	2124	-4
CN(C)S(=O)(=O)c1cccc(-c2nnc(SCC(=O)NCCCCCC(=O)O)n2-c2ccc(F)cc2)c1	0.7	-2	-3	-1	-35	3365	13
Cc1[nH]c2ccccc2c1Cc1nnc(SCC(=O)NCc2ccco2)o1	-0.3	4	·	·	-4	5439	-9
COc1ccc(NC(=O)C2Cc3cc(S(=O)(=O)N4CCCCC4)ccc3N2C(C)=O)cc1Cl (stereo unspecified)	4.6	8	4	1	-9	6117	-6
CCOC(=O)c1c(C)[nH]c(C(=O)C(C)OC(=O)c2oc3ccccc3c2COC)c1C (stereo unspecified)	-0.4	13	·	·	-6	4196	-3
Cc1ccc(NC2CC(=O)N(Cc3ccccc3)C2=O)cc1 (stereo unspecified)	0.8	5	7	0	-19	8002	2
COc1ccc(N(CC(=O)NC2CCCCC2)C(=O)CNC(=O)c2cccs2)cc1	3.0	0	-13	4	-19	5862	5
COc1ccc(CCn2c(=N)c(C(=O)NC3CCCC3)cc3c(=O)n4ccccc4nc32)cc1	-0.8	3	3	6	-15	6121	-3
Cc1nc2c(-c3ccccc3)c(C)[nH]n2c(=O)c1Cc1ccccc1	2.5	-7	6	4	-30	4172	7
C#CCn1c(S(=O)(=O)Cc2ccc(OC)cc2)nc(-c2ccccc2)c1-c1ccccc1	-3.9	11	5	3	-4	10313	3
CC1(C)OC2OC3C(CNCCO)OC(c4ccccc4)OC3C2O1 (stereo unspecified)	2.2	2	12	8	-8	3760	·
C=CCc1ccccc1OCCNCc1ccccc1	1.1	1	2	3	-13	5059	0
COCCCNC(=O)CCn1c(=O)c2ccccc2n(CC(=O)Nc2ccccc2C)c1=O	0.0	1	·	·	1	4116	3
COc1ccccc1C1CCN(C(=O)C2CCCCC2)CC1	7.1	3	3	0	-24	3048	2
COc1cccc(CNC(=O)C2CCCN(c3nn4c(=O)cc(C)nc4s3)C2)c1OC (stereo unspecified)	0.0	-5	-4	1	-7	9253	-19
CCCCCCC(=O)N(O)C1CC(=O)N(c2ccc(Br)cc2)C1=O (stereo unspecified)	0.1	3	2	10	-19	9275	-3
CNC(=O)C(=O)N1CCC2(CC1)OCCN2S(=O)(=O)c1ccc(C)cc1	3.7	9	12	4	-22	6330	3

The closing three entries of the section above are carried over, then new ones follow:
SMILES	RN4220 kill	Sa ugtP lethal	Mtb hypoxia inh	Mtb hypoxia inh growth	PrP UTR inh	Bead autofluor	BJeLR lethal
COc1cccc(CNC(=O)C2CCCN(c3nn4c(=O)cc(C)nc4s3)C2)c1OC (stereo unspecified)	0.0	-5	-4	1	-7	9253	-19
CCCCCCC(=O)N(O)C1CC(=O)N(c2ccc(Br)cc2)C1=O (stereo unspecified)	0.1	3	2	10	-19	9275	-3
CNC(=O)C(=O)N1CCC2(CC1)OCCN2S(=O)(=O)c1ccc(C)cc1	3.7	9	12	4	-22	6330	3
O=C(Cc1ccc(Cl)cc1)Nc1ccc(Cl)cn1	-1.6	12	15	22	-30	3850	-11
CCCNC(=O)[C@H]1N2C(=O)c3c(ccc(OC)c3OC)C2SC1(C)C (stereo partly specified)	3.3	11	9	-2	-20	2951	2
CCOc1ncccc1C(=O)N1CCN(c2cc(Cl)ccc2C)CC1	9.2	-3	10	11	38	4309	25
CCOc1ccc2nc(NC(=O)CS(=O)(=O)c3ccccc3)sc2c1	8.5	-10	1	1	-16	2401	-7
COc1ccc(-n2c(-c3ccc(Br)cc3)c[n+]3c2CCCCC3)cc1	0.1	0	1	10	-28	4107	10
O=C(O)c1cc(N/N=C/c2ccc3c(c2)OCO3)ccc1Cl	·	·	·	·	-53	4708	-8
CCOC(=O)c1cc2c(ccn2C)n1Cc1ccc(C#N)cc1	1.0	-2	8	10	-3	3248	4
CC(=O)c1ccc(OC(C)C(=O)NC2CCCCC2C)cc1 (stereo unspecified)	-3.9	-9	-6	4	-11	3609	·
CN(Cc1nccn1C)C(=O)C1CCC(=O)N(Cc2cccc(C(F)(F)F)c2)C1 (stereo unspecified)	4.1	0	12	-1	-26	5791	-2
O=C(C=NO)Nc1ccccc1C(=O)O	-6.2	-10	-14	-2	·	·	·
O=[N+]([O-])c1cccc(C=Nn2cnnc2)c1	3.2	7	-2	-3	·	·	·
CC1(C)Cc2cccc(OCC(=O)N3CCN(c4ccc([N+](=O)[O-])cc4)CC3)c2O1	4.9	2	11	6	-21	10528	1
COc1cc(C=NNC(=O)Cc2c[nH]c3ccccc23)cc(OC)c1OC	0.6	1	1	4	·	·	·
Nc1nonc1-n1nnc(C(=O)NN=Cc2cccc(Cl)c2)c1CSc1ccc(Cl)cc1	3.5	-2	15	14	·	·	·
Cc1ccc(NC(=O)c2cc(CC(C)C)nc3ccccc23)cc1	2.5	3	7	4	-20	3526	-6
COC(=O)CNC(=O)COC(=O)/C=C/c1ccc(F)cc1	3.1	9	5	16	-27	3380	-4
O=C(NCCc1cccnc1)C1CCC(=O)N(Cc2ccc(Cl)cc2)C1 (stereo unspecified)	1.5	2	9	10	-20	5598	-1
COc1ccc(/C=C(\CC(=O)O)c2nc3ccccc3o2)cc1	·	·	·	·	-41	3060	-5
Cc1oc(/N=C/c2ccc3c(c2)OCO3)c(C#N)c1C	·	·	·	·	-9	9508	5
COCCCNC(=O)C(C)N1c2cccc3cccc(c23)S1(=O)=O (stereo unspecified)	5.2	8	6	8	2	4139	-1
CCCCNC(=O)CCn1c(=O)c2ccccc2n(Cc2ccccc2C)c1=O	6.2	-6	3	6	-17	7795	-14
O=C(COC(=O)Cc1c(F)cccc1Cl)NNC(=O)c1ccccc1	1.6	3	-6	13	-2	3881	·
Oc1ccc(Cl)cc1C=Nc1ccccc1Br	10	6	12	3	57*	2081	-12
Cc1noc(C)c1CSc1ncnc2ccccc12	5.6	10	6	3	-6	3513	5
Cc1cc(C)n2c(Br)c(CN3CCCC(C)C3)nc2n1 (stereo unspecified)	2.1	3	1	5	-27	4024	2

The list continues:
SMILES	RN4220 kill	Sa ugtP lethal	Mtb hypoxia inh	Mtb hypoxia inh growth	PrP UTR inh	Bead autofluor	BJeLR lethal
CC(C)Oc1ccc(S(=O)(=O)N2CCCCC2)cc1NC(=O)CN1C(=O)NC(C)(c2ccccc2)C1=O (stereo unspecified)	3.0	13	10	-5	-18	6598	-10
COc1ccc2c(c1)OC13CCN(C)CC1C2C(C(=O)c1ccc(F)cc1)C(=O)N3 (stereo unspecified)	-2.9	-7	-3	-3	2	5575	3
COCCNC(=O)CN(C(=O)Cn1nnc2ccccc21)c1ccccc1C	-1.6	1	-2	2	-11	4199	-1
CN(C)C(=O)[C@H]1C[C@H]1[C@@H](O)[C@H](CO)NC(=O)[C@H](Cc1ccccc1)NC(=O)OC(C)(C)C	·	·	·	·	-18	4192	7
Cc1cccc(C)c1NC(=O)Cn1c(=O)n(CCC(=O)NCc2ccco2)c(=O)c2sccc21	3.6	-5	0	8	-34	20666*	-3
Cc1cc(NC(=O)C2C3C(=O)N(CC4CCCO4)C(C(=O)NCc4ccccc4)C34C=CC2(C)O4)no1 (stereo unspecified)	2.4	-4	3	2	-9	2495	-1
Cc1cc(N2CCCC2)n2nc(C)nc2n1	3.3	-3	-1	1	-13	6160	-3
CCOc1cccc(C(=O)Nc2ccc(NC(=O)c3ccccc3)c(C)c2)c1	2.0	6	-3	8	-11	3972	6
Cc1ccc2nc(Cl)c(CN(C(=O)c3cnccn3)C3CCCCC3)cc2c1	4.6	-8	3	5	2	10458	5
CCOCN(C(=O)Cn1c(C(C)O)nc2ccccc21)c1c(C)cccc1CC (stereo unspecified)	2.7	-9	-7	5	-6	2943	-2

The order is random (roughly 4.1% active in at least one column).
